Screening data: PubChem, National Center for Advancing Translational Sciences (NCATS)
D2 agonist – D2 dopamine receptor (human) agonism. 340,000 tested, 0.53% active. activation, % at 2 µM. HEK293 T-REx D2 cells, calcium flux agonist mode;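 active = activation over 3 SD above normal in the single-dose calcium agonist read, cut at about 30% in these data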; also: 0% is about no effect
Target sequence (P14416 whole entry, looked up): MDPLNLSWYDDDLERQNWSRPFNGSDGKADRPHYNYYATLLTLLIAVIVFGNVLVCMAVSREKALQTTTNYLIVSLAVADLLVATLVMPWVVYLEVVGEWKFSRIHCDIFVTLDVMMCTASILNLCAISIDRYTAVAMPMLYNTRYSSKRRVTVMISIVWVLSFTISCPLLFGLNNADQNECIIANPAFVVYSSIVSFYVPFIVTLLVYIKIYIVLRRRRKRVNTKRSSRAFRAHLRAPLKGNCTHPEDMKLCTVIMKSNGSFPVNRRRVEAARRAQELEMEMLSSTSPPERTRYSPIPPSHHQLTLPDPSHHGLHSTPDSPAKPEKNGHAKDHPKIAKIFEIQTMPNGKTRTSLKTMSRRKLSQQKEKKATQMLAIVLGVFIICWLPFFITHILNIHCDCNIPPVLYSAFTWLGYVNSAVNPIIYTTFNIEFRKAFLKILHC
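Tetracycline-induced HEK293 Trex cells with D2 receptor force-coupled to calcium signaling, plated overnight at 30 C and loaded with no-wash calcium dye. Calcium flux read kinetically for 180 s after compound addition; responses flag agonists.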
rTrxR1 inhibitor – blocks rat thioredoxin reductase 1 | recombinant rTrxR1, NADPH fluorescence consumption, selenite substrate | Potency, µM (top dose mostly 114 µM), inactives show top-dose activity change, negative = inhibition, usual class: inhibitors | 390,000 tested, 1% active | AID 588453; also: potency is read from the fitted curve at half-maximal effect; % is scaled to controls: 0 for no effect and ±100 for the full control effect; nearly all actives have a fitted effect of over 65% in size
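Rat TrxR1 (90 nM in the dispensed reagent) was pre-reduced with 400 uM NADPH for 5 min at room temperature, then incubated with compound for 15 min. After 400 uM selenite was added, NADPH fluorescence (Ex 340/Em 450 nm) was followed for 8 min.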
TrxR1 substrate – rat thioredoxin reductase 1 substrate activity. O89049. purified TrxR1 substrate turnover, NADPH consumption readout. Potency, µM (titrated, usually from 114 µM), without a hit: top-dose activity change, negative = substrate turnover. 390,000 tested, 0.01% active. AID 588456; also: potency is read from the fitted curve at half-maximal effect; % is scaled to controls: 0 for no effect and ±100 for the full control effect; nearly all actives have a fitted effect of over 50% in size
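Rat TrxR1, dispensed at 90 nM, was prereduced with 400 uM NADPH (final) for 5 min at ~22 deg C, then incubated with compound 15 min before 400 uM selenite. A first-read NADPH fluorescence drop versus no-compound background flagged substrates.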
PI4K2A block – blocks human PI4K2A kinase activity; Q9BTU6; purified PI4K2A, ADP-Glo luminescence, 1 h; stronger effect = lower value; activity change, negative = inhibition, % at 76.9 µM; 420,000 tested, 0.13% active; in the data active = activity change below about -50%;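 also: -100% = wells without enzyme as full effect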
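In this quantitative HTS, ADP production by PI4K2A was quantified luminescently after 1 h at ambient temperature; 100 microM adenosine served as plate-quality control.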
D2 antagonist – D2 dopamine receptor (human) antagonism; HEK293 TREx D2 cells, calcium flux, dopamine EC80; 340,000 tested, 2% active; P14416; inhibition, % at 10 µM; in the data active = inhibition above about 30%; also: 0% is about no effect
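Tetracycline-induced HEK293 TREx cells expressing D2 receptor forced-coupled to calcium signalling, loaded with no-wash calcium dye. Compounds added and calcium flux read 180 s, then dopamine added at EC80 and read a further 180 s.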
* marks the source's active call; other numbers are inactive results; / = no result given; & = joins results of further samples; [ ] = remark or other dose. Unless noted, calls follow the shape of the dose curve; as a rule, active = well fitted inhibition curve with a large enough effect; inconclusive = small, poorly fitted or top-dose-only effect; inactive = no such curve, though single readings can be large or run the other way. Some of the compounds tested; count on the stated rates, not on these rows.

SMILES | D2 agonist | rTrxR1 inhibitor | TrxR1 substrate | PI4K2A block | D2 antagonist
COc1c2occc2cc2ccc(=O)oc12 | 0.5 | 0%[57.1 µM] | -1%[57.1 µM] | 1&0 | 2
C#C[C@]1(O)CC[C@H]2[C@@H]3CCC4=CC(=O)CC[C@@H]4[C@H]3CC[C@@]21C | / | 17% | 0% | 6&1 | /
O=C(CCCN1CCC(O)(c2cccc(C(F)(F)F)c2)CC1)c1ccc(F)cc1 | 0.9 | 8%[57.1 µM] | 6%[57.1 µM] | -3&-5&-1 | 9
O=c1[nH]cnc2c1ccn2C1OC(CO)C(O)C1O (stereo unspecified) | / | 6% | -1% | -4 | /
O=C(CCCN1CCC(O)(c2ccc(Br)cc2)CC1)c1ccc(F)cc1 | 1.0 | -1% | 2% | 1&-3 | 79*
O=C(O)CC(O)C(=O)O (stereo unspecified) | -0.4 | 16%[57.1 µM] | 4%[57.1 µM] | -3&-2 | -11
NCCCC(=O)O | -0.8 | 20%[57.1 µM] | 2%[57.1 µM] | -8&-4 | -30
CN(C)c1ccc(O)c2c1C[C@H]1C[C@H]3[C@H](N(C)C)C(=O)C(C(N)=O)=C(O)[C@@]3(O)C(=O)C1=C2O | / | / | / | -9 | /
Cc1cc(NS(=O)(=O)c2ccc(N)cc2)no1 | 2.1 | 0% | -4% | 0&-1 | 17
N[C@H](CO)C(=O)O | / | 23%[57.1 µM] | 12%[57.1 µM] | -1 | /
CC(C)(C)NC(=O)[C@@H]1C[C@@H]2CCCC[C@@H]2CN1C[C@@H](O)[C@H](Cc1ccccc1)NC(=O)[C@H](CC(N)=O)NC(=O)c1ccc2ccccc2n1 | 0.8 | -8%&20% | -11%&1% | -7&-8 | 9

Reformatted in markdown: five of the compounds above.
| structure | D2 agonist | rTrxR1 inhibitor | TrxR1 substrate | PI4K2A block | D2 antagonist |
| --- | --- | --- | --- | --- | --- |
| N[C@H](CO)C(=O)O | / | 23%[57.1 µM] | 12%[57.1 µM] | -1 | / |
| O=C(CCCN1CCC(O)(c2ccc(Br)cc2)CC1)c1ccc(F)cc1 | 1.0 | -1% | 2% | 1&-3 | 79* |
| CC(C)(C)NC(=O)[C@@H]1C[C@@H]2CCCC[C@@H]2CN1C[C@@H](O)[C@H](Cc1ccccc1)NC(=O)[C@H](CC(N)=O)NC(=O)c1ccc2ccccc2n1 | 0.8 | -8%&20% | -11%&1% | -7&-8 | 9 |
| O=C(CCCN1CCC(O)(c2cccc(C(F)(F)F)c2)CC1)c1ccc(F)cc1 | 0.9 | 8%[57.1 µM] | 6%[57.1 µM] | -3&-5&-1 | 9 |
| C#C[C@]1(O)CC[C@H]2[C@@H]3CCC4=CC(=O)CC[C@@H]4[C@H]3CC[C@@]21C | / | 17% | 0% | 6&1 | / |
